AID504770 = growth inhibition of E. coli YBA685, primary screen, V. cholerae RctB inhibitors; E. coli YBA685 rctB-dependent plasmid, OD600 growth, 3 h; stronger effect = lower value; z-score (no concentration beside the values); 130,000 tested, 0.27% active;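 active = z-score under -2 on both plates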;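 also: wells of about 30 µL received 100 nL stock; score is relative to mean and SD of the test wells; the first replicate is given; strong numbers were not always called active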
CapD inh = Bacillus anthracis CapD inhibitors, primary screen, biochemical, fluorescence intensity. z-score (test concentration not listed). 140,000 tested, 0.23% active. purified CapD enzyme, fluorescence intensity read-out; stronger effect = lower value; some hits fall short of the stated cut;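 active = z-score under -4 in either of two replicates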;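 also: stock transfer was 100 nL into about 40 µL; score is relative to mean and spread of the plate; one replicate is shown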
* hit, by the source's call; . = not tested or not shown; & = joins results of further samples.

Values run as follows: CapD inh	AID504770
CC(C(=O)NCC1CCCO1)N(C(=O)c1snc(C(N)=O)c1N)c1cccc(F)c1 (stereo not given)
→ .	-0.25
CC(=O)Nc1ccc([N+](=O)[O-])cc1-c1nc2cc3ccccc3cc2[nH]c1=O
→ 0.15	.
CCCNS(=O)(=O)c1cccc(C(=O)N2CCN(c3cccc(OC)c3)CC2)c1
→ .	0
CCC(C)(C)c1ccc(S(=O)(=O)NC(COC(C)(C)C)C(=O)OC(C)(C)C)cc1 (stereo not given)
→ 0.615	.
COC(=O)c1cc(S(=O)(=O)NCCN2CCN(c3ccccc3F)CC2)c[nH]1
→ -0.935	1.9
Cc1cc(C)nc(OC(Cc2cnc3ccccc3n2)c2ccc(C(F)(F)F)cc2)n1 (stereo not given)
→ -0.56	.
Cc1c(C(N)=O)cc([N+](=O)[O-])cc1[N+](=O)[O-]
→ -0.36	-0.1
CCc1cccc2c(C=C(C#N)C#N)cn(CC(=O)NC3CCCC3)c12
→ .	-0.2
COC(=O)c1ccc2c(=O)n(CCC3=CCCCC3)c(SCc3ccc(Cl)cc3)nc2c1
→ -0.68	-0.2
O=C(c1ccccc1)c1ccc2c(c1)Cc1ccccc1-2
→ -0.35	.
CNC(C)[C@@H]1CC[C@@H](N)[C@@H](OC2[C@@H](N)C[C@@H](N)[C@H](OC3OC[C@](C)(O)[C@H](NC)[C@H]3O)[C@H]2O)O1 (stereo not given in full)
→ 0.14	0.4
CC(=O)NS(=O)(=O)c1ccc(Br)cc1
→ -0.485	-1.2
CC(=O)c1ccc2c(c1)C1C=CCC1C(c1ccc(Cl)cc1Cl)N2 (stereo not given)
→ 8.34	.
NC(Cc1cc(I)c(Oc2ccc(O)c(I)c2)c(I)c1)C(=O)O (stereo not given)
→ 0.64	.
COC(=O)c1sccc1NS(=O)(=O)c1cc(C(F)(F)F)cc(C(F)(F)F)c1
→ 0.285	.
Nc1ccc2nc(SCC(=O)NCCOc3ccc(Cl)cc3)sc2c1
→ -0.705	.
O=C1C2C(c3ccc(Cl)cc3Cl)OC3(C(=O)c4ccccc4C3=O)C2C(=O)N1C1CCCC1 (stereo not given)
→ 0.31	.
Cc1cccn2c(=O)c(/C=C3\SC(=S)NC3=O)c(NCC3CCCO3)nc12 (stereo not given)
→ 1.77	0.2
N#CC1=C(NC(=O)c2ccccc2)c2ccccc2CC12CCCC2
→ -0.545	.
CC1=C(C(=O)Nc2ccc(Cl)cc2)C(c2ccco2)C(C#N)=C(SCC(=O)Nc2ccccc2)N1 (stereo not given)
→ 24.5	.
Fc1ccc(N2CCN(C3=Cc4ccccc4CC3)CC2)cc1
→ 1.58	0.25
CN1CCCNc2nc3ccccc3nc21
→ .	-0.55
COc1ccc(N(C)C(=O)CCS(=O)(=O)c2cccc3nonc23)cc1
→ 0.605	-0.2
CN1c2ccc(Cl)cc2C(=O)NC1C1CC=CCC1 (stereo not given)
→ 4.94	.
CC(C)(C)c1cc(NC(=O)c2nn3c(C(F)(F)F)cc(-c4ccccc4)nc3c2Br)no1
→ 0.06	0.05
O=C(Nc1nncs1)Oc1ccccc1
→ .	-0.35
O=C(COc1ccc(Cl)c2cccnc12)c1ccc2c(c1)OCCO2
→ .	0.05
CC(C)(C)c1ccc(C(=O)Nc2ccc(S(N)(=O)=O)cc2)cc1
→ -0.075	0.05
Brc1cccc(-c2cn3nc(C4CC4)sc3n2)c1
→ -0.97	-0.1
O=C(NC1CCCC1)C1CCN(Cc2cnn(-c3ccccc3)c2-n2cccc2)CC1
→ -0.025	0.7
Cc1ccc(C23CC4CC(CC(C(=O)CN5CCCCC5)(C4)C2)C3)cc1
→ 0.98	.
COc1cccc(/C=C2/NC(=O)N(Cc3ccc(F)cc3)C2=O)c1
→ 0.205	0.15
c1ccc2c(OCc3nc4ccccc4[nH]3)cccc2c1
→ -0.92	-1.25
CC(C)CN(CC(C)C)Cn1nc(C2COc3ccccc3O2)oc1=S (stereo not given)
→ .	1
O=C(NCc1noc2ccccc12)Nc1nccs1
→ -0.385	-1.65
CCc1ccc(-c2csc3nc4ccccc4n23)cc1
→ -1.69	0.4
CC1CCN(C(=O)CSc2nc3c(sc(=S)n3Cc3ccco3)c(=O)n2-c2ccccc2)CC1
→ -0.865	.
COC(=O)c1c(N)cccc1F
→ 31.9	.
Cn1c(=O)c2c(nc(NCCOCCO)n2Cc2ccc(Cl)cc2Cl)n(C)c1=O
→ 0.58	.
Cc1ccc(NC(=O)CN=C2NC(C)(C)Cc3ccccc32)cc1
→ 0	-0.4
COC(=O)c1[nH]c(Cn2cc(S(=O)(=O)N3CCCC3)ccc2=O)c(C(=O)OC)c1C
→ .	-0.6
CCN(CC)C(C)CN1c2ccccc2Sc2ccccc21 (stereo not given)
→ -0.49&-0.83	0.45
Cn1cccc1Cc1nnc(SCC(N)=O)n1C
→ -1.19	1.95
CCN1C(=O)/C(=C2/Sc3ccccc3N2CCCS(=O)(=O)O)SC1=S
→ -3.94*	.
CC(OC(=O)CSc1nnc(-c2ccccc2)n1-c1ccccc1)C(=O)Nc1ccccc1C#N (stereo not given)
→ .	0.3
COc1cc(/C=C2/C(=O)NN(c3ccc(Cl)cc3)C2=O)ccc1OC(=O)c1ccco1
→ -1.28	-0.35
CCn1c(C)nc2cc(C(=O)N/N=C/c3ccccc3)ccc21
→ .	-0.35
COc1ccc(Br)cc1S(=O)(=O)NCc1ccccc1
→ -0.79	-0.2
O=C(O)c1cc2oc3ccccc3c3ccccc3oc2cc1C(=O)Nc1ccc(F)cc1
→ 0.25	-0.15
CC1(C)CC2(C)OC(=O)c3ccccc3N2C(=S)N1 (stereo not given)
→ 0.23	.
O=C(O)c1cccc(Nc2nc(-c3ccc([N+](=O)[O-])cc3)nc3ccccc23)c1
→ -0.06	.
COc1ccc(C(=O)N2N=C(c3ccc(Br)cc3)CC2(O)C(F)(F)F)cc1 (stereo not given)
→ -0.04	.
CN1CCC/C1=c1\c(=O)n(-c2ccccc2)n2c(-c3ccc(Cl)cc3)cnc12
→ .	1.3
O[C@@H]1[C@@H](O)[C@H](Nc2ccccc2)OC[C@H]1O
→ 0.485	1.55
Cn1c(=O)c2c(c3ccccc31)OC(=O)CC2c1cccnc1 (stereo not given)
→ -0.42	-0.2
CN=c1scc(C)n1/N=C/c1ccc(O)cc1
→ .	-0.4
COc1cc(/C=C2\SC(NC(C)=O)=NC2=O)cc(Br)c1OCC(=O)O
→ -1.27	.
Cc1ccn2c(NC(=O)C3CC3)c(-c3ccccc3)nc2c1
→ 27.2	0.65
CC1(C)Cc2ccccc2-c2nc(NCCO)n(Cc3ccccc3)c(=O)c21
→ 43.7	.
CNC(=O)c1cc(N2CCN(c3ccccc3)CC2)ccn1
→ .	-0.55

(further entries)
Values run as follows: CapD inh	AID504770
O=C(CS(=O)(=O)c1ccc(Cl)cc1)NO
→ -0.18	-1.6
Cc1ccc(OCC(=O)Nc2ccc(O)c(C(=O)O)c2)cc1
→ 4.72	-0.45
Cc1ccc(Cn2nnc3c(=O)[nH]c(C4CCN(S(=O)(=O)c5ccccc5C#N)CC4)nc32)cc1
→ 0.085	0.65
Cc1cc(=O)oc2cc(OCC(=O)c3ccc4c(c3)NC(=O)CO4)ccc12
→ .	-0.25
COC(=O)c1sc2ncccc2c1N
→ 1.34	-0.7
C/C(=N\n1cnnc1)c1ccc(O)cc1
→ 0.19	0.25
O=C(NCCC1=CCCCC1)c1cc2cccc3c2n1CCS3
→ 69.6	-1.15
CCOC(=O)CCc1c(C)nn(-c2ccc(N3CCCCC3)nn2)c1C
→ 0.3	0.85
COC(=O)c1ccc(COC(=O)c2ccc(S(=O)(=O)N(C)c3ccccc3OC)cc2)o1
→ .	1.4
O=C(Nc1ccc2c(c1)OCO2)C(c1ccccc1)c1ccccc1
→ -0.31	.
Cc1onc(-c2c(Cl)cccc2Cl)c1C(=O)NNC(=O)c1ccc(-n2nc(C(C)(C)C)cc2C(C)(C)C)cc1
→ 0.175	.
Cc1cccc(N2CCN(C(=O)CCCCCn3c(=S)[nH]c4ccc(N5CCOCC5)cc4c3=O)CC2)c1C
→ 0.075	0.7
CCOc1ccccc1NC(=O)c1sc2ncnc(N3CCN(c4ccccn4)CC3)c2c1C
→ -0.04	.
Clc1ccc(CO/N=C/c2cccs2)cc1
→ -0.44	0.9
Cc1cn(C(=O)Nc2ccc(Cl)cc2)nc1-c1ccccc1
→ 0.015	.
COc1cccc(CN2CCN(S(=O)(=O)c3cc(Cl)sc3Cl)CC2)c1
→ -0.755	.
O=C(O)C1CC(C(F)(F)F)CC(C(F)(F)F)C1 (stereo not given)
→ 0.29	.
O=C1OC(c2ccc(Cl)cc2)=N/C1=C\c1ccccc1
→ -0.72	-0.05
N#CC(C#N)=CNCCc1ccc(Cl)cc1
→ 0.555	-0.05
N#CCSc1nnc(N)s1
→ 0.445	.
O=C(c1ccccc1)c1cccs1
→ .	1.2
CN(C)CCN(C(=O)c1ccc(Br)cc1)c1nc2ccc(Cl)cc2s1
→ -0.175	-0.9
C=C1Cn2c(nc3sc4c(c3c2=O)CCCC4)S1
→ -0.34	-0.2
CCCNC(=O)c1cc(-c2ccco2)on1
→ -4.73*	-0.15
CN(C1CCCCC1)S(=O)(=O)c1ccccc1N=Cc1c(O)n(C)c(=O)n(C)c1=O
→ .	0.5
Cc1ccc2c(C)nc(Nc3nc(CSc4nnc(C)s4)cc(=O)[nH]3)nc2c1
→ -0.04	1.7
COc1ccc2ccc(OC)c(/C=C3\NC(=S)N(C)C3=O)c2c1
→ 0.36	0
Cc1ccc(CNC(=O)C2CC(=O)N(CCC(C)C)C2)cc1 (stereo not given)
→ -0.065	-0.3
O=C(Cc1c[nH]c2ccccc12)N/N=C/c1cc([N+](=O)[O-])ccc1F
→ -1.1	.
CC(=O)OC1CN2CCC1CC2 (stereo not given)
→ -0.305	.

By substructure: the compounds so far containing an NH in an aromatic ring (eight)
Values run as follows: CapD inh	AID504770
CC(=O)Nc1ccc([N+](=O)[O-])cc1-c1nc2cc3ccccc3cc2[nH]c1=O
→ 0.15	.
COC(=O)c1cc(S(=O)(=O)NCCN2CCN(c3ccccc3F)CC2)c[nH]1
→ -0.935	1.9
c1ccc2c(OCc3nc4ccccc4[nH]3)cccc2c1
→ -0.92	-1.25
COC(=O)c1[nH]c(Cn2cc(S(=O)(=O)N3CCCC3)ccc2=O)c(C(=O)OC)c1C
→ .	-0.6
Cc1ccc(Cn2nnc3c(=O)[nH]c(C4CCN(S(=O)(=O)c5ccccc5C#N)CC4)nc32)cc1
→ 0.085	0.65
Cc1cccc(N2CCN(C(=O)CCCCCn3c(=S)[nH]c4ccc(N5CCOCC5)cc4c3=O)CC2)c1C
→ 0.075	0.7
Cc1ccc2c(C)nc(Nc3nc(CSc4nnc(C)s4)cc(=O)[nH]3)nc2c1
→ -0.04	1.7
O=C(Cc1c[nH]c2ccccc12)N/N=C/c1cc([N+](=O)[O-])ccc1F
→ -1.1	.

The list continues.
Values run as follows: CapD inh	AID504770
Cc1ccc(Nc2ccc3c4c(cc(=O)n3C)-c3ccccc3C(=O)c24)cc1
→ -0.505	.
CCCCCCCCCCCCC(CCCCCCCCCCCC)COC1OC(COC(C)=O)C(OC(C)=O)C(OC(C)=O)C1NC(C)=O (stereo not given)
→ 0.765	.
Nc1nnc(SCC(=O)Nc2ccc(F)cc2)n1CC(=O)Nc1ccc(F)cc1
→ -1.61	2.65
CC(=O)OC1CCC(C(=O)O)CC1 (stereo not given)
→ 0.25	-0.4
COc1cccc(-c2noc(-c3cccnc3)n2)c1
→ -0.195	-1.05
O=C(c1cnn2ccccc12)N1CCCc2ccccc21
→ 2.31	-0.15
Cc1cc2c(cc1C)C(c1cccc(Cl)c1)CC(=O)N2 (stereo not given)
→ -0.56	.
C=CCNc1nc(OC(C(F)(F)F)C(F)(F)F)nc(N2CCCCC2)n1
→ -0.67	.
CCc1ccc2oc(C(=O)NCc3ccncc3)cc(=O)c2c1
→ 1.58	-0.25
CC1CCN(Cn2nc(-c3ccc(C(C)(C)C)cc3)n(-c3ccccc3)c2=S)CC1
→ -0.135	.
O=C(c1ccc(C(F)(F)F)cc1)N1CCC(C(O)(c2ccccc2)c2ccccc2)CC1
→ -0.69	.
OC(CC#CCN1CCOCC1)(c1ccccc1)c1ccccc1
→ .	-0.5
N#Cc1ccc(NC(=O)C(F)(F)F)cc1
→ .	1.3
COc1ccc(C2CC(=O)NC(NC(=O)CCCOc3ccccc3)=N2)cc1 (stereo not given)
→ -0.515	0.4
O=C(CCn1cccc1)Nc1ccccc1
→ -2.85	1.9
COc1cc(C(=O)N2CCCN(c3nc4cc(C)ccc4cc3C#N)CC2)cc(OC)c1OC
→ .	-0.75
Cc1ccc(S(N)(=O)=O)cc1C(=O)NCC(C)C
→ 1	-0.95
Nc1nc2ncc(C(=O)c3cc(F)ccc3O)cc2s1
→ .	1.3
Cc1cc(-c2ccc(S(=O)(=O)NC3CCCc4ccccc43)cc2)on1 (stereo not given)
→ 0.005	0.85
Cc1cccc(C)c1NCc1nnc(SCC(N)=O)n1-c1ccccc1
→ .	-0.25
CCSC1=C(C#N)C(c2cccc(Cl)c2Cl)CC(=O)N1 (stereo not given)
→ 0.64	0.1
Cc1ccc2c(c1)-c1c(ssc1=S)C(C)(C)N2C(=O)CN1CCC(C(N)=O)CC1
→ -1.01	.
COC(Cc1nnc(SCc2ccccc2)n1-c1ccc(Cl)cc1)OC
→ -0.115	.
CCOC(=O)c1ccc(NCN2C(=O)S/C(=C\c3ccc(C(=O)OC)cc3)C2=O)cc1
→ 0.16	.
COC(=O)C1=C(N)OC2=C(C(=O)CC(c3ccccc3)C2)C1c1cccc(Cl)c1 (stereo not given)
→ -0.295	.
COc1ccc(C2CC2/C(C)=N/OC(=O)c2ccc([N+](=O)[O-])cc2)cc1 (stereo not given)
→ 1.25	.
CC(C)C(NC(=O)COc1ccccc1)C(C)C
→ 0.405	-0.35
COC(=O)C1=CN(CCCN2CCCC2=O)C=C(C(=O)OC)C1c1cccc(F)c1
→ .	-0.6
On1c(-c2ccc(Cl)cc2)nc2ccc(Cl)cc21
→ 0.53	0.95
CN(CCC#N)C(=O)C1CCN(S(=O)(=O)c2ccc(-n3cnnn3)cc2)CC1
→ .	2.4
N#CC(=C1C=CC(=NO)C=C1)c1ccccc1
→ -2.56	.

Bioassay records as filed in PubChem BioAssay.
